Assay outcomes deposited in PubChem BioAssay by several laboratories.
HSV replic up: enhancers of HSV replication in host cells, fold increase, host cell viability; maximum fold increase; HSV replication augmentation in cells; AID 1956, 2009; 220,000 compounds, 0.005% hits;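 active = peak rise of 1.5-fold or more in the series; inconclusive = self-fluorescent or not available for retest; tested in PC3 cells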;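 also: first round at 10 µM; read as green reporter fluorescence; hits show the peak of a series up to 25 µM; 1 = signal of infected wells without compound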
RGS16-Gao: modulators of RGS16 binding to Galphao, primary screen, biochemical, human proteins, multiplexed bead flow cytometry; Regulator of G-protein signaling 16 (Homo sapiens) + Guanine nucleotide-binding protein …; bead-based flow cytometry RGS16-Galphao binding, fluorescence; actives lie on both sides; binding response (% of control), % at 10 µM; 220,000 compounds, 0.38% hits; AID 1441, 2008;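 active = below 25% or above 175%, edge rows of some plates excepted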;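 also: Galphao activated by GDP with aluminum fluoride before binding; 100% = wells without compound and 0% = beads without RGS; some results beyond the cut were filed as inactive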
Target sequence (O15492 whole entry, looked up): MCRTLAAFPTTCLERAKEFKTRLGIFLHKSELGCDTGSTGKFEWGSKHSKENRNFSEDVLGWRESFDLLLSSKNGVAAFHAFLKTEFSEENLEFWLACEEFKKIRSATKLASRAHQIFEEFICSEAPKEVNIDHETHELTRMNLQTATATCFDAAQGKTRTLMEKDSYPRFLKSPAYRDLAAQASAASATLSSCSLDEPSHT
Target sequence (P09471 whole entry, looked up): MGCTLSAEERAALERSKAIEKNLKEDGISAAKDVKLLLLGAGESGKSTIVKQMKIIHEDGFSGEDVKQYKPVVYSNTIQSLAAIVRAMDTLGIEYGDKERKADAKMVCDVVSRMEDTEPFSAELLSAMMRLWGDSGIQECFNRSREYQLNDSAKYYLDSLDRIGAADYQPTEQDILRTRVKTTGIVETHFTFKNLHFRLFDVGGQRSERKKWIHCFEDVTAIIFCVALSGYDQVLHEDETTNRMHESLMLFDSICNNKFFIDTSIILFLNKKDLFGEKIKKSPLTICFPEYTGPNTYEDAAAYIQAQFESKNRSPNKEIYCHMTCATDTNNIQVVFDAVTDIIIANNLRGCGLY
GALR2 ag: GALR2 receptor agonists, primary screen, cell-based; GALR2-expressing cells, agonist activation read-out; activation, %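 (tested at 5 µM)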; 140,000 compounds, 0.48% hits; AID 803, 2007;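 active = above mean plus 3 SD of all compounds, about 5% in these data, not always enough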;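 also: 0% = vehicle buffer wells and 100% = reference agonist at full effect; tested in CHO reporter cells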
Target sequence (O43603 whole entry, looked up): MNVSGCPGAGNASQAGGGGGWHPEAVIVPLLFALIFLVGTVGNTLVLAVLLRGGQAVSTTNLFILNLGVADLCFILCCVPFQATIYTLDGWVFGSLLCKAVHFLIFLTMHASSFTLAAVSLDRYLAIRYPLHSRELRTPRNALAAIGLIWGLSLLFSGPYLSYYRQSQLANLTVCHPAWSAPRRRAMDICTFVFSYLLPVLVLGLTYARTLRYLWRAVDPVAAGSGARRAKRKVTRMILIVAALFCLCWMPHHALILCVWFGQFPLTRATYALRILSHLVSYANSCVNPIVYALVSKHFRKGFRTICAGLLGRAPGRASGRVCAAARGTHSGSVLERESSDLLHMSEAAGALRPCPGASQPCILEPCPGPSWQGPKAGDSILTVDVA
PKD1 inh: inhibitors of human PKD1 kinase, biochemical, fluorescence polarization; AID 797, 2007; 200,000 compounds, 0.056% hits; PKD1 kinase fluorescence polarization assay; inhibition, %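 (about 10 µM by stock and volumes)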;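 active = inhibition of 50% or more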;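 also: controls were vehicle for no effect and a reference inhibitor for full effect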
Insulin prom inh: inhibitors of insulin promoter-driven GFP, primary screen, imaging, TRM-6 cells (human fetal islet line), eGFP reporter, cell count | inhibition, % at 2 µM | AID 1273, 2008 | reporter expression induced with tamoxifen | 130,000 compounds, 0.9% hits;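 active = inhibition above the mean plus 3 SD, with well images judged a real hit on visual review, cut at about 60% in these data, passing the limit was not always enough; inconclusive = inhibition over the cutoff but images rejected on review; inactive = inhibition not above the cutoff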
Insulin prom inh cell count: further read-out of Insulin prom inh, marked with its call; normalized cell count, %; measured here: cell count, toxicity; reference of the scale not given here;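 cells exposed to compound for 48 h; stained nuclei by imaging scaled within each plate; lower means fewer cells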
HSV replic up primary fold: further read-out of HSV replic up, marked with its call; fold increase; compound at 10 µM; measured here: primary screen fold increase 10 uM; tested in PC3 cells;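 GFP signal in the first replicate; 1 = infected wells without compound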
Starred values were filed as active, the others as inactive; i = inactive; ? = inconclusive; · = no result given.

Each structure is followed by: HSV replic up, HSV replic up primary fold, RGS16-Gao, GALR2 ag, PKD1 inh, Insulin prom inh, Insulin prom inh cell count
(1) COc1ccc(/C=C/C(=O)NNc2cc(=O)n(C)c(=O)n2C)cc1OC
  i, 1.2, 99, ·, ·, ·, ·
(2) COc1ccc2[nH]c3c(c2c1)CCC/C3=N\N
  i, 0.76, 106, ·, ·, ·, ·
(3) CC(C)COC(=O)c1ccc(NC(=O)C2C3CCC(C3)C2C(=O)O)cc1 (centres undefined)
  i, 0.97, 100, -0.2, -1, ·, ·
(4) COc1ccccc1C/C(N)=N/OC(=O)c1cccs1
  i, 0.96, 98, ·, -6, ·, ·
(5) CON/C=C(\C=Nc1ccc(Cl)cc1)c1ncc(C(F)(F)F)cc1Cl
  i, 0.93, 115, -1.9, -11, 19, 79
(6) O=C(COC(=O)c1ccccc1)Nc1ccccc1Br
  i, 0.83, 101, ·, -2, 29, 74
(7) COc1ccc(-n2ncc3c(NCCCn4ccnc4)ncnc32)cc1
  i, 1.1, 110, -1.5, 3, ·, ·
(8) Cn1nc(NC(=O)C(C)(C)C)c2c(F)cccc21
  i, 0.95, 111, ·, ·, ·, ·
(9) Cn1c(-c2sc(=S)n(-c3ccccc3)c2N)nc2ccccc21
  i, 1, 91, -1.6, -5, -21, 136
(10) O=C(/C=C/c1ccccc1)NC(=S)Nc1ncccn1
  i, 0.97, 100, ·, ·, ·, ·
(11) Cc1ccc(Nc2ccc(C(=O)NCCc3ccccc3)cn2)cc1
  i, 1, 96, 0.3, -13, -158, 166
(12) CCC(=O)N/C(N)=N/c1nc2ccccc2o1
  i, 0.99, 96, ·, ·, ·, ·
(13) O=C(NNS(=O)(=O)c1ccccc1)c1ccc(S(=O)(=O)N2CCCCC2)cc1
  i, 0.85, 103, -0.3, -6, -8, 110
(14) Cn1c(CCN2CCCCCC2)nc2cc(NC(=O)Nc3ccccc3)ccc21
  i, 0.63, 97, -2.4, 6, ·, ·
(15) COc1cccc(C2CC(=O)C3=C(C2)Nc2ccccc2N(C(=O)CCC(=O)O)C3c2ccc(F)cc2)c1 (centres undefined)
  i, 0.91, 102, ·, ·, ·, ·
(16) Cc1ccc(Cn2ncn(-c3ccccc3)c2=O)cc1
  i, 1, 101, ·, -7, ·, ·
(17) Cc1ccc(NS(=O)(=O)c2cccc(C(=O)NCC(c3cccs3)N(C)C)c2)cc1 (centres undefined)
  i, 1, 101, ·, -4, ·, ·
(18) CC(=O)c1cccc(CN2CCC(CO)(CCCc3ccccc3)CC2)c1
  i, 0.92, 106, ·, -1, ·, ·
(19) COC(=O)c1sccc1NC(=O)c1cc(-c2cc(C)ccc2C)nc2ccccc12
  i, 0.76, 99, 0.0, -13, ·, ·
(20) CCOC(=O)c1ccc(N2C(=O)C3CC=CCC3C2=O)cc1 (centres undefined)
  i, 0.83, 119, 1.6, -1, 38, 115

Continued:
Each structure is followed by: HSV replic up, HSV replic up primary fold, RGS16-Gao, GALR2 ag, PKD1 inh, Insulin prom inh, Insulin prom inh cell count
(21) CC1CCCC(C)N1C(=S)NCc1ccco1 (centres undefined)
  i, 1, 102, ·, ·, ·, ·
(22) CCc1cccc(NC(=O)Cn2c(-c3ccccc3)cc(C(C)=O)c2C)c1
  i, 0.85, 61, -1.1, -4, -20, 82
(23) CCC(C)C(NS(=O)(=O)c1ccc(C)cc1)C(=O)O (centres undefined)
  i, 0.99, 102, ·, 5, 36, 97
(24) Cc1cc(C)c2c(-n3cccc3)c(NC(=O)OC(C)C)sc2n1
  i, 0.9, 97, 1.4, -2, -29, 118
(25) O=[N+]([O-])c1cccnc1NCc1cccs1
  i, 0.86, 102, ·, -2, 29, 83
(26) CC(C)(C)n1nc2c(c1NC(=O)c1ccc(Br)cc1)CS(=O)C2 (centres undefined)
  i, 1, 99, -2.5, 11, ·, ·
(27) COc1cccc(C(=O)Nc2cccc(C(C)=O)c2)c1
  i, 1.1, 108, -1.7, 2, ·, ·
(28) Cc1ccc(NC(=O)CSc2nccn2C)cc1S(=O)(=O)N1CCOCC1
  i, 0.98, 108, -1.3, -4, 1, 100
(29) CCOc1cc(Br)c(C(=O)O)cc1OCC
  i, 0.82, 97, -0.3, -4, 11, 128
(30) CC(C)Cn1c(=O)c2c(nc3n2CCS3)n(C)c1=O
  i, 1.1, 104, ·, ·, ·, ·
(31) CCNc1nc(NC(C)(C)C)nc(N2CCCCC2)n1
  i, 0.8, 99, ·, 1, 35, 101
(32) COc1ccc(/C=N/NC(=O)c2cc(Br)ccc2O)cc1Cn1cc(Cl)cn1
  i, 0.98, 92, -1.1, -5, 0, 94
(33) O=[N+]([O-])c1ccc(N2CCOCC2)cc1NC(c1ccccc1)c1ccccc1
  i, 1.1, 95, -1.5, -1, 11, 57
(34) CO/N=C/NC(=O)Cc1cn(-c2ncc(C(F)(F)F)cc2Cl)c2ccccc12
  i, 0.91, 105, -1.7, 0, 3, 59
(35) CCN(CC)c1ccc(/C=N/n2nnnc2N)c(O)c1
  i, 0.68, 133, 0.6, -4, 14, 53
(36) COc1ccc(NC(=O)CCn2cccc2)cc1
  i, 1, 101, -1.2, 6, 50, 137
(37) Cc1ccc(C(=O)c2coc3cc([N+](=O)[O-])c(O)c([N+](=O)[O-])c23)cc1
  i, 1, 107, -1.8, -4, -12, 146
(38) CC(C)Cc1cc(C(=O)NCc2cccs2)no1
  i, 0.67, 51, -2.7, -7, 100*, 66*
(39) Cc1ccc(-n2cc(CN3CCC(O)(c4ccccn4)CC3)c(-c3ccc(F)cc3)n2)cc1
  i, 0.74, 112, ·, -7, ·, ·
(40) Cc1cc(C(F)F)n2nc(C(=O)Nc3cccnc3Cl)nc2n1
  i, 0.96, 100, -0.9, 4, -37, 66

(more compounds)
Each structure is followed by: HSV replic up, HSV replic up primary fold, RGS16-Gao, GALR2 ag, PKD1 inh, Insulin prom inh, Insulin prom inh cell count
(41) O=[N+]([O-])c1ccc(N2CCCC2)nc1N1CCCC1
  i, 1.1, 103, ·, ·, ·, ·
(42) O=C(CN(C1CCCCC1)S(=O)(=O)c1ccc(Cl)cc1)NCc1ccncc1
  i, 0.8, 120, -1.6, -14, ·, ·
(43) CCc1nnc(NC(=O)C2CCCN2S(=O)(=O)c2ccc(F)cc2)s1 (centres undefined)
  i, 0.88, 96, -3.0, 0, -44, 130
(44) COC(=O)C1=C(C)N=C2SC(C)C(=O)N2C1c1cccc(F)c1 (centres undefined)
  i, 1.1, 104, 1.8, 2, 0, 100
(45) O=C1CCCc2oc3c(c21)CCCC3
  i, 1, 100, ·, 3, ·, ·
(46) CCOC(=O)c1ccc(CC(=O)c2oc3cc(O)ccc3c2C)o1
  i, 0.77, 96, -1.9, 9, 33, 78
(47) Cc1cc([N+](=O)[O-])nn1CC(=O)N/N=C/c1ccc(O)cc1O
  i, 0.75, 60, ·, ·, ·, ·
(48) CCCNC(=O)CSc1nc(COc2ccccc2)nc2ccccc12
  i, 1.1, 109, ·, 1, ·, ·
(49) CCOc1ccc(NC(=O)Cn2nnc(C(=O)NCCc3ccc(OC)c(OC)c3)c2N)cc1
  i, 0.96, 97, -1.9, -3, 21, 145
(50) O=C(Nn1c(-c2ccccc2)nc2ccccc2c1=O)c1ccco1
  i, 1.1, 130, -2.2, -4, ·, ·
(51) C[N+](C)(C)CCN1C(=O)CSC1=O
  i, 0.91, 102, ·, ·, ·, ·
(52) Cc1ccccc1C(=O)O/N=C(\N)c1ccncc1
  i, 1.1, 112, 0.3, -9, i, 85
(53) CC(CC(=O)Nc1cc(C(F)(F)F)ccc1Cl)c1ccccc1 (centres undefined)
  i, 0.98, 99, -1.4, 9, -30, 111
(54) CN(C)CCN(C(=O)/C=C/c1cccs1)c1nc2c(F)cc(F)cc2s1
  i, 0.56, 103, 1.0, 1, 7, 71
(55) CC1=NN(C(=O)c2csc(C)c2)C(O)(C(F)(F)F)C1 (centres undefined)
  ·, ·, 110, -2.4, 6, 11, 85
(56) Clc1nc(Cl)nc(NCCC2=CCCCC2)n1
  i, 1.1, 97, ·, -3, 6, 105
(57) CCN(CC)CCCNc1oc(/C=C/c2ccccc2)nc1C#N
  i, 0.9, 96, ·, ·, ·, ·
(58) Oc1c(C(c2cccs2)N2CCN(c3cccc(Cl)c3)CC2)sc2ncnn12 (centres undefined)
  i, 0.69, 97, -1.7, 3, ·, ·
(59) CC(=O)N1CC2(C)CN(C(C)=O)CC(C)(C1)C2O (centres undefined)
  i, 0.9, 70, -0.3, -6, 8, 49
(60) C=CCc1cc(Cl)ccc1OCCCNC(C)CC (centres undefined)
  i, 0.78, 107, -0.5, -2, -29, 112

Screen by screen, from the results shown:
Entries 32–43 in Insulin prom inh read 0, 11, 3, 14, 50, -12, 100*, ·, -37, ·, ·, -44

More structures.
Each structure is followed by: HSV replic up, HSV replic up primary fold, RGS16-Gao, GALR2 ag, PKD1 inh, Insulin prom inh, Insulin prom inh cell count
(61) O=C(NC(Cc1ccccc1)C(=O)N1CCCC1C(=O)O)c1ccccc1 (centres undefined)
  i, 1.1, 105, 0.6, -4, ·, ·
(62) Cc1ccc(C)n1-c1cccc(C(=O)O)c1
  i, 0.83, 91, ·, ·, ·, ·
(63) Cn1c(=O)n(CCc2ccccc2)c(=O)c2c1nc1n2CCCN1c1ccccc1
  i, 0.81, 101, -0.7, 10, ·, ·
(64) Cn1cc(CN2CCN(c3cnccn3)CC2)c(-c2cccc(Cl)c2)n1
  i, 1.1, 96, ·, -2, ·, ·
(65) Cc1ccnc(N/C=C(\C#N)c2nc(-c3cccc(Br)c3)cs2)c1
  ?, ·, 110, -3.6, 1, -12, 128
(66) CC1CN(C(=O)c2cccs2)CCN1C(=O)c1cccs1 (centres undefined)
  i, 0.95, 103, -0.9, -8, -16, 108
(67) CC(C)N(C(=O)COC(=O)[C@H](C)NC(N)=O)c1ccccc1
  i, 1.1, 98, ·, -14, ·, ·
(68) O=C(/C=C/c1ccc(N2CCC(c3ccccc3)=N2)cc1)c1ccccc1
  ?, ·, 111, ·, -10, -456, 120
(69) CC(C)C(C(=O)NCC1CCCO1)N(Cc1ccco1)C(=O)CNS(=O)(=O)c1ccccc1 (centres undefined)
  i, 0.9, 102, -2.6, 4, ·, ·
(70) COc1ccc(/C=C/C(=O)c2ccc(O)cc2)cc1CN1CCOCC1
  i, 0.74, 108, -0.8, 12, 10, 123
(71) Cn1nccc1NS(=O)(=O)c1ccc(F)cc1
  i, 1, 97, ·, ·, ·, ·
(72) COc1cccc(-n2nc(C(=O)O)c3ccccc3c2=O)c1
  i, 0.96, 102, -0.7, -2, ·, ·
(73) CC(=O)Nc1cccc(C(=O)OCC(=O)NCc2ccc(F)cc2)c1
  i, 0.94, 97, ·, -11, ·, ·
(74) CCCCOc1ccc(C(=O)NCC(=O)OCC(=O)N2CCN(S(=O)(=O)c3ccc(C)cc3C)CC2)cc1
  i, 0.98, 107, 7.6*, -2, -7, 89
(75) COc1ccc(/C=C/C(=O)NC(C)CCc2ccccc2)cc1OC (centres undefined)
  i, 0.94, 107, ·, -4, ·, ·
(76) CS(=O)(=O)N(CC(=O)NCc1ccco1)c1ccc(OCc2ccccc2)cc1
  i, 0.92, 103, ·, 0, ·, ·
(77) COc1cccc(-c2nc(-c3ccc4c(c3)NC(=O)CO4)cs2)c1
  i, 1, 98, ·, -3, 18, 82
(78) Cc1ccc2nc(C)c(C(=O)N/N=C/c3ccc(N4CCOCC4)cc3)cc2c1
  i, 1.1, 100, -1.1, -5, ·, ·
(79) COc1ccccc1CNC(=O)CS(=O)Cc1nc(-c2ccccc2C)oc1C (centres undefined)
  i, 1.2, 61, -2.3, -5, ·, ·
(80) Cc1n[nH]c(C)c1S(=O)(=O)N1CCC(C(=O)O)CC1
  i, 1, 104, -2.8, 15, ·, ·

Single records, as listed above. Values in the order: HSV replic up, HSV replic up primary fold, RGS16-Gao, GALR2 ag, PKD1 inh, Insulin prom inh, Insulin prom inh cell count
COc1ccc(/C=C/C(=O)NC(C)CCc2ccccc2)cc1OC (centres undefined) as listed: i, 0.94, 107, ·, -4, ·, ·
COc1ccc(/C=C/C(=O)c2ccc(O)cc2)cc1CN1CCOCC1 as listed: i, 0.74, 108, -0.8, 12, 10, 123
CCCCOc1ccc(C(=O)NCC(=O)OCC(=O)N2CCN(S(=O)(=O)c3ccc(C)cc3C)CC2)cc1 as listed: i, 0.98, 107, 7.6*, -2, -7, 89
O=C(/C=C/c1ccc(N2CCC(c3ccccc3)=N2)cc1)c1ccccc1 as listed: ?, ·, 111, ·, -10, -456, 120
